Assay outcomes as filed in PubChem.
Yeast UUG start = modulators of start codon recognition fidelity in yeast. S. cerevisiae UUG-firefly luciferase reporter, luminescence/redox ratio. activity score, % at 18.7 µM. 350,000 tested, 0.13% active. AID 602363;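 active = replicate mean at a twofold rise or more, about +100% in these data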;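 note: firefly luciferase made from a UUG start codon reports start codon fidelity; reporter light over untreated wells divided by growth signal over untreated wells; some hits fall short of that in this replicate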
Env fusion inh = blocks HIV Env-driven cell-cell fusion; inhibition, % at 12.3 µM; HeLa-JRFL Env/CEM21 cell fusion, luciferase; AID 651610; 360,000 tested, 1.1% active;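 active = mean replicate inhibition score of at least 50 and every replicate individually at or above 50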;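 note: 0% = plate neutral controls and 100% = maraviroc near 300 nM; one replicate is shown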
Rce1 inhib = inhibitors of yeast Ras-converting enzyme. yeast membranes, quenched prenylated peptide cleavage fluorescence. Q03530. calls only. 290,000 tested, 0.27% active;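 active = fall in fluorescence gain of 50% or more versus controls, with final raw signal at or below 3038400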;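 note: plate controls were neutral control wells for no effect and wells lacking membranes for full effect; tested at 10 µM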
Target sequence (Q03530 whole entry, looked up): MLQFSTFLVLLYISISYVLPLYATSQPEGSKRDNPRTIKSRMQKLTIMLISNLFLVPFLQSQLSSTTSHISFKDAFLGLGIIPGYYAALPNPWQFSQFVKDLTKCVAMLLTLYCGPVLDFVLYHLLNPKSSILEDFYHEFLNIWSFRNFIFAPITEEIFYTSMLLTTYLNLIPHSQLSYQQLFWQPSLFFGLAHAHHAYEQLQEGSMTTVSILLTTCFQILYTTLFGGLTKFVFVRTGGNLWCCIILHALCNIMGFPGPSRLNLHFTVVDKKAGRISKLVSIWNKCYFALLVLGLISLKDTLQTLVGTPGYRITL
MT1-MMP act inh = blocks activation of human MT1-MMP; HT1080 RFP-PRO-GFP cells, GFP/RFP ratio fluorescence, overnight; percent of plate control window, DMSO zero; P50281; 360,000 tested, 0.061% active; GFP/RFP ratio change, % at 20 µM;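 active = GFP/RFP ratio change of at least 30% with cell ATP level not reduced by more than half and red fluorescence within 50% of control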; note: strong numbers were not always called active
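Assay system: RFP-PRO-GFP reporter HT1080 cells; read-out basis: GFP/RFP fluorescence ratio; benchmarks: DMSO wells and RFP-L50D-GFP cells; doses: 20 µM single dose, 1% DMSO; schedule: overnight cell settling, then overnight compound exposure, 37 °C, 5% CO2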
CSC inhib = blocks cancer stem cells; cancer stem cell-like cells viability, luminescence; inhibition, % at 7.5 µM; 300,000 tested, 1.1% active;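 active = mean at 75% or more and at least half the replicates too; tested in HMLE shEcad cells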;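 note: 0% = median of negative and 100% = median of positive control wells; the first replicate is given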
PABP FP inh = PABP-poly(A) binding inhibition. PABP-poly(A) RNA binding, fluorescence polarization. inhibition, % at 35 µM. P11940. 290,000 tested, 1% active;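 active = 50% or more with normal probe brightness, or confirmed in later tests; about a fifth of its hits are not listed in these tables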;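 note: calls also rest on retests at 20 µM and on dose response follow-up; controls were probe without protein and protein plus probe with vehicle; some compounds called inactive have numbers as strong as hits; many hits fall short of the cut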
eIF4H inh = inhibitors of RNA binding by human eIF4H. eIF4H fluorescence polarization binding assay. inhibition, % at 35 µM. 290,000 tested, 0.94% active. AID 2012;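 active = 50% or more with normal probe brightness, or confirmed in later tests; about a fifth of its hits are not listed in these tables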;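 note: calls also rest on retests at 20 µM and on dose response follow-up; 0% = protein and probe with vehicle and 100% = probe without protein; strong numbers were not always called active; many hits fall short of the cut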
eIF4H inh retest = recorded beside eIF4H inh, whose call it bears; inhibition, %; compound at 20 µM; confirmation average;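 mean of two retest wells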
PABP FP inh retest = recorded beside PABP FP inh, whose call it bears; inhibition, %; compound at 20 µM; confirmation repeats;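 mean of two retest wells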
MT1-MMP act inh RFP = recorded beside MT1-MMP act inh, whose call it bears; RFP signal change, %; measured here: RFP expression control read;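 0 = vehicle wells; hits needed this value within 50% of zero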
An asterisk follows results filed as active.

How did COc1cc(OC)cc(-c2c(C#Cc3ccsc3)c3cc(-c4ccc5c(c4)OCO5)ccc3n2C)c1 do in these assays?
Yeast UUG start: -16; Env fusion inh: 16; MT1-MMP act inh: 2; MT1-MMP act inh RFP: 7

What do the screens show for `Cc1csc2c(=O)n3c(nc12)CCCCC3`?
Yeast UUG start: -7; Env fusion inh: -56; Rce1 inhib: inactive; MT1-MMP act inh: 0; PABP FP inh: -3; eIF4H inh: -9; MT1-MMP act inh RFP: 2

How did CC(C)C1C(C#N)=C(N)Oc2n[nH]c(-c3ccccc3)c21 (configuration not stated) do in these assays?
Yeast UUG start: 18; Rce1 inhib: inactive; MT1-MMP act inh: 0; CSC inhib: -10; PABP FP inh: 4; eIF4H inh: 2; MT1-MMP act inh RFP: -3

What do the screens show for `CCn1c(SCC(N)=O)nc2sc3c(c2c1=O)CCCC3`?
Rce1 inhib: inactive; MT1-MMP act inh: 0; PABP FP inh: -5; eIF4H inh: -12; MT1-MMP act inh RFP: 2

What do the screens show for `COc1ccc2ccccc2c1CN1CCN(C(=O)c2ccccc2)CC1`?
Yeast UUG start: 6; Rce1 inhib: inactive; MT1-MMP act inh: 3; CSC inhib: -8; PABP FP inh: -2; eIF4H inh: 6; MT1-MMP act inh RFP: -2

What do the screens show for `CCN(CC)CCCNc1oc(-c2ccccc2[N+](=O)[O-])nc1C#N`?
Env fusion inh: -3; Rce1 inhib: inactive; MT1-MMP act inh: 0; CSC inhib: -3; PABP FP inh: 13; eIF4H inh: 11; MT1-MMP act inh RFP: 2

How did COc1ccc(NC(=O)NCc2ccccn2)cc1 do in these assays?
Yeast UUG start: -9; Rce1 inhib: inactive; MT1-MMP act inh: -2; CSC inhib: -12; PABP FP inh: 3; eIF4H inh: -5; MT1-MMP act inh RFP: 3

How did CC1(C)CC(NC(=O)COc2ccc3ccc(=O)oc3c2)CC(C)(C)N1 do in these assays?
Yeast UUG start: 0; Env fusion inh: 3; Rce1 inhib: inactive; MT1-MMP act inh: -1; CSC inhib: -10; PABP FP inh: 3; eIF4H inh: 9; MT1-MMP act inh RFP: -1

What do the screens show for `COc1ccc(C(C)(C)C)cc1NC(=O)c1ccc[n+]([O-])c1`?
Yeast UUG start: -14; Env fusion inh: 18; Rce1 inhib: inactive; MT1-MMP act inh: 0; PABP FP inh: 2; eIF4H inh: 0; MT1-MMP act inh RFP: 4

Results for CC1CN(c2ccc([N+](=O)[O-])c(NCCOc3ccccc3)c2)CC(C)N1 (configuration not stated) ?
Yeast UUG start: -16; Env fusion inh: -3; Rce1 inhib: inactive; MT1-MMP act inh: 1; CSC inhib: 62; PABP FP inh: -11; eIF4H inh: -2; MT1-MMP act inh RFP: -1

What do the screens show for `O=C(Nc1ccc(C2=CN(Cc3ccccc3)CCC2=O)cc1)OCc1ccccc1`?
Yeast UUG start: -1; Env fusion inh: 7; MT1-MMP act inh: 2; MT1-MMP act inh RFP: 4

What do the screens show for `CCOc1ccc(NC(=O)CSc2nnnn2CC(=O)O)cc1`?
Yeast UUG start: -22; Rce1 inhib: inactive; MT1-MMP act inh: 8; CSC inhib: -6; PABP FP inh: 77; eIF4H inh: -12; eIF4H inh retest: -3; PABP FP inh retest: 4; MT1-MMP act inh RFP: 0

How did O=C(CCN1C(=O)/C(=C/c2ccccc2Cl)SC1=S)Nc1cccnc1 do in these assays?
Yeast UUG start: -11; Env fusion inh: 8; Rce1 inhib: inactive; MT1-MMP act inh: 5; CSC inhib: 1; PABP FP inh: -6; eIF4H inh: -15; MT1-MMP act inh RFP: 2

How did CCOc1ccc(NC(=O)CCCCCN2C(=O)[C@@H]3Cc4ccccc4CN3C2=O)cc1 do in these assays?
Env fusion inh: -3; Rce1 inhib: inactive; MT1-MMP act inh: -1; CSC inhib: -10; PABP FP inh: -1; eIF4H inh: -3; MT1-MMP act inh RFP: -4

Results for CC(C)NC(=O)CN(CCc1ccccc1)S(C)(=O)=O ?
Yeast UUG start: -8; Env fusion inh: -8; Rce1 inhib: inactive; MT1-MMP act inh: 2; CSC inhib: -5; PABP FP inh: -4; eIF4H inh: 16; MT1-MMP act inh RFP: 5

What do the screens show for `Cc1c(/C(O)=C2/C(=O)C(=O)N(CCN3CCOCC3)C2c2cccs2)cnn1-c1ccccc1` (configuration not stated)?
Yeast UUG start: -20; Rce1 inhib: inactive; MT1-MMP act inh: 2; CSC inhib: -7; PABP FP inh: 12; eIF4H inh: -6; MT1-MMP act inh RFP: 4

Results for COc1ccc(-c2cccc(C(=O)NCC(=O)O)c2)cc1 ?
Yeast UUG start: -15; Rce1 inhib: inactive; MT1-MMP act inh: 4; CSC inhib: -1; PABP FP inh: 2; eIF4H inh: -4; MT1-MMP act inh RFP: 1

What do the screens show for `O=C(c1cccc(Cl)c1)N(Cc1ccco1)C1CCS(=O)(=O)C1` (configuration not stated)?
Yeast UUG start: -4; Env fusion inh: 1; Rce1 inhib: inactive; MT1-MMP act inh: -2; CSC inhib: 2; PABP FP inh: -9; eIF4H inh: 2; MT1-MMP act inh RFP: 5

What do the screens show for `COc1ccc(-c2cc(-c3nnc(-c4ccncc4)o3)c3ccccc3n2)cc1`?
Env fusion inh: -3; Rce1 inhib: inactive; MT1-MMP act inh: -1; CSC inhib: 12; PABP FP inh: -13; eIF4H inh: -3; MT1-MMP act inh RFP: -4

What do the screens show for `CC(C)CN(C(=O)Cn1c(Cl)nc2c1c(=O)n(C)c(=O)n2C)C1CCS(=O)(=O)C1` (configuration not stated)?
Yeast UUG start: -27; Env fusion inh: 0; Rce1 inhib: inactive; MT1-MMP act inh: 4; CSC inhib: -3; MT1-MMP act inh RFP: 3

What do the screens show for `Clc1cccc(CSc2nnc(-c3ccccn3)n2Cc2ccco2)c1`?
Yeast UUG start: -2; Env fusion inh: -11; Rce1 inhib: inactive; MT1-MMP act inh: 0; CSC inhib: 18; PABP FP inh: 4; eIF4H inh: -4; MT1-MMP act inh RFP: -6

How did O=C(CCS(=O)(=O)c1ccc(F)cc1)Nc1nc(-c2ccncc2)cs1 do in these assays?
Yeast UUG start: -2; Env fusion inh: 6; Rce1 inhib: inactive; MT1-MMP act inh: -4; CSC inhib: 59; PABP FP inh: 5; eIF4H inh: 1; MT1-MMP act inh RFP: -8

How did C/C=C/C=C/C(=O)Nc1cccc(C2=NOC3(C2)C[C@H](C(N)=O)N(C(=O)CC(c2ccccc2)c2ccccc2)C3)c1 (some centres not stated) do in these assays?
Rce1 inhib: inactive; CSC inhib: -6; PABP FP inh: 7; eIF4H inh: -10

How did Cc1cc(/C=C(/C#N)C(=O)Nc2ccccc2)c(C)n1-c1cccnc1 do in these assays?
Yeast UUG start: 0; Rce1 inhib: inactive; MT1-MMP act inh: -5; PABP FP inh: 18; eIF4H inh: 14; MT1-MMP act inh RFP: -5

Results for CCOc1ccc(NC(=O)c2ccccc2CO)cc1 ?
Yeast UUG start: -50; Rce1 inhib: inactive; MT1-MMP act inh: 4; CSC inhib: -5; PABP FP inh: 2; eIF4H inh: -7; MT1-MMP act inh RFP: 5

How did CCOc1ccc(C(=O)NCCc2ccccc2)cc1 do in these assays?
Yeast UUG start: -65; Rce1 inhib: inactive; MT1-MMP act inh: 2; CSC inhib: -2; PABP FP inh: 0; eIF4H inh: 4; MT1-MMP act inh RFP: 2

Results for CCOC(=O)c1[nH]c(C)c(C(=O)OCC(=O)N(C)C2CCS(=O)(=O)C2)c1C (configuration not stated) ?
Env fusion inh: -4; Rce1 inhib: inactive; MT1-MMP act inh: -3; CSC inhib: 2; PABP FP inh: 10; eIF4H inh: 2; MT1-MMP act inh RFP: -4

How did Brc1ccc(OCCn2ccnc2)cc1 do in these assays?
Yeast UUG start: -10; Rce1 inhib: inactive; MT1-MMP act inh: 0; CSC inhib: -9; PABP FP inh: -11; eIF4H inh: -12; MT1-MMP act inh RFP: 2

Results for N#Cc1ncccc1CCc1cccc(Cl)c1 ?
Yeast UUG start: -4; Env fusion inh: 4; Rce1 inhib: inactive; MT1-MMP act inh: 1; MT1-MMP act inh RFP: -2

Results for Cc1[nH][nH]c(=O)c1C(c1ccc(-c2cccc(Cl)c2)o1)c1c(C)[nH][nH]c1=O ?
Yeast UUG start: -14; Rce1 inhib: inactive; MT1-MMP act inh: 0; CSC inhib: 2; PABP FP inh: -14; eIF4H inh: -4; MT1-MMP act inh RFP: 5

What do the screens show for `COc1cc2c(cc1OC)C1(CCCC1)CNC2c1ccc([N+](=O)[O-])cc1` (configuration not stated)?
Env fusion inh: -5; Rce1 inhib: inactive; MT1-MMP act inh: -3; CSC inhib: 10; PABP FP inh: 7; eIF4H inh: -6; MT1-MMP act inh RFP: -2

How did CC1CCc2c(sc(/N=C/c3ccco3)c2C(N)=O)C1 (configuration not stated) do in these assays?
Yeast UUG start: -16; Env fusion inh: -20; Rce1 inhib: inactive; MT1-MMP act inh: 1; CSC inhib: 7; PABP FP inh: -3; eIF4H inh: -3; MT1-MMP act inh RFP: 0

How did O=C1C(=O)N2C(=C1C(=O)N1CCCCCC1)c1ccccc1CC21CCCC1 do in these assays?
Yeast UUG start: -10; Env fusion inh: 9; Rce1 inhib: inactive; MT1-MMP act inh: -4; CSC inhib: 49; PABP FP inh: 5; eIF4H inh: 2; MT1-MMP act inh RFP: -2

How did O=c1[nH]nc(Cc2ccc(Cl)cc2)c2ccccc12 do in these assays?
Yeast UUG start: -11; Env fusion inh: -25; Rce1 inhib: inactive; MT1-MMP act inh: 3; CSC inhib: -5; PABP FP inh: 4; eIF4H inh: -6; MT1-MMP act inh RFP: -1

Results for CCC1(CC)NC(=O)N(CC(=O)OC(C)C(=O)Nc2ccccc2OC)C1=O (configuration not stated) ?
Yeast UUG start: -14; Env fusion inh: 20; Rce1 inhib: inactive; MT1-MMP act inh: -3; CSC inhib: -11; MT1-MMP act inh RFP: 5

How did O=C1Nc2cc3c(cc2Sc2ccccc21)OCCO3 do in these assays?
Yeast UUG start: -30; Rce1 inhib: inactive; MT1-MMP act inh: 3; CSC inhib: 9; PABP FP inh: -5; eIF4H inh: -5; MT1-MMP act inh RFP: 2

Part of the list above in order of SMILES length, ascending:
Results for N#Cc1ncccc1CCc1cccc(Cl)c1 ?
Yeast UUG start: -4; Env fusion inh: 4; Rce1 inhib: inactive; MT1-MMP act inh: 1; MT1-MMP act inh RFP: -2

How did O=C1Nc2cc3c(cc2Sc2ccccc21)OCCO3 do in these assays?
Yeast UUG start: -30; Rce1 inhib: inactive; MT1-MMP act inh: 3; CSC inhib: 9; PABP FP inh: -5; eIF4H inh: -5; MT1-MMP act inh RFP: 2

How did O=c1[nH]nc(Cc2ccc(Cl)cc2)c2ccccc12 do in these assays?
Yeast UUG start: -11; Env fusion inh: -25; Rce1 inhib: inactive; MT1-MMP act inh: 3; CSC inhib: -5; PABP FP inh: 4; eIF4H inh: -6; MT1-MMP act inh RFP: -1

How did CC1CCc2c(sc(/N=C/c3ccco3)c2C(N)=O)C1 (configuration not stated) do in these assays?
Yeast UUG start: -16; Env fusion inh: -20; Rce1 inhib: inactive; MT1-MMP act inh: 1; CSC inhib: 7; PABP FP inh: -3; eIF4H inh: -3; MT1-MMP act inh RFP: 0

Results for Cc1[nH][nH]c(=O)c1C(c1ccc(-c2cccc(Cl)c2)o1)c1c(C)[nH][nH]c1=O ?
Yeast UUG start: -14; Rce1 inhib: inactive; MT1-MMP act inh: 0; CSC inhib: 2; PABP FP inh: -14; eIF4H inh: -4; MT1-MMP act inh RFP: 5

These rows are one share of the data; the hit share may differ from the screen's.
